Screening data deposited in PubChem BioAssay by Broad Institute.
Vaccinia stage = Vaccinia orthopox stage-specific inhibition | AID 1053133 | Vaccinia-infected cells, mCherry/Venus stage reporter fluorescence; hits give low values; some inactives read as strong as hits | activity change (mCherry), % (test concentration not listed) | 89,000 tested, 0.01% active;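 active means mCherry past -33% and 40 or more points under the early reporter, replicates agreeing; inconclusive means past -33% without that gap or agreement; tested in A549 cells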;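 further: scaled between vehicle wells and reference inhibitor wells; 23 nL library stock went into each well; one replicate is shown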
Vaccinia stage Venus = second read-out of Vaccinia stage, no call of its own (marks repeat the call); activity change (Venus), %; measured here: Venus reporter, other viral stage;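 negative = less Venus signal; first of two replicates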
The depositor's hits bear a star; ? = inconclusive; nt = no result given. Not all compounds are listed (hit frequency here may not be typical).

# | Compound | Vaccinia stage | Vaccinia stage Venus
1 | C/C=C/c1ccc(C2[C@@H]3CN(S(=O)(=O)c4ccc(F)cc4)C[C@H]2N3)cc1 (stereo partly drawn) | ? | nt
2 | O=C(NCc1ccncc1)[C@H]1[C@H](CO)[C@H]2Cn3c(ccc(-c4cccnc4)c3=O)[C@H]2N1C(=O)C1CC1 | 7 | 1
3 | C[C@@H]1CN([C@H](C)CO)C(=O)c2cc(C#C[C@@H](C)O)cnc2O[C@H]1CN(C)Cc1ccccn1 | 29 | 13
4 | C[C@@H]1CN([C@@H](C)CO)C(=O)c2cccc(NC(=O)Nc3ccc(F)cc3)c2O[C@H]1CN(C)S(=O)(=O)c1ccccc1 | 2 | 4
5 | C[C@@H]1CN([C@@H](C)CO)C(=O)c2cc(NC(=O)Nc3ccc(C(F)(F)F)cc3)ccc2O[C@H]1CN(C)S(=O)(=O)c1ccc(F)cc1 | -31 | -25
6 | CNC[C@H]1OCc2cnnn2CCCC(=O)N([C@H](C)CO)C[C@@H]1C | 8 | 4
7 | O=C(c1cccc(F)c1)N1CC(=O)N2[C@H](CO)[C@@H](c3ccc(C#Cc4ccc(F)cc4)cc3)[C@@H]2C1 | -34 | -32
8 | C[C@H](CO)N1C[C@H](C)[C@@H](CN(C)S(=O)(=O)c2cccs2)Oc2c(NC(=O)c3ccc(-c4nccs4)cc3)cccc2C1=O | 17 | 13
9 | COc1ccc(C#Cc2ccc([C@@H]3[C@H](CO)N4C(=O)CN(C(=O)c5cccnc5)C[C@@H]34)cc2)cc1 | ? | nt
10 | C[C@H]1CN([C@@H](C)CO)C(=O)c2cc(-c3ccccc3F)cnc2O[C@H]1CN(C)C(=O)C1CC1 | 17 | -8
11 | Cc1noc(C)c1S(=O)(=O)Nc1cccc2c1O[C@@H](CN(C)C(=O)NC1CCCCC1)[C@@H](C)CN([C@@H](C)CO)C2=O | 5 | 12
12 | C[C@H]1CCCCO[C@H](CN(C)C(=O)Nc2cccc3ccccc23)[C@@H](C)CN([C@@H](C)CO)C(=O)c2cc(NC(=O)c3ccccc3)ccc2O1 | 9 | 14
13 | CNC(=O)C[C@@H]1CC[C@@H]2[C@H](COC[C@H](O)CN2Cc2ccncc2)O1 | 4 | 7
14 | C[C@@H]1CN([C@H](C)CO)C(=O)c2cc(C#CC3CCCCC3)cnc2O[C@@H]1CN(C)Cc1ccncc1 | -3 | -9
15 | CO[C@H]1CN(C)C(=O)c2cc(NC(C)=O)ccc2OC[C@@H](C)N(Cc2cc(F)ccc2F)C[C@H]1C | 11 | 9
16 | C[C@H](NC(=O)C[C@@H]1C[C@H]2c3cc(NC(=O)CC4CC4)ccc3O[C@H]2[C@H](CO)O1)c1ccccc1 | -6 | -7
17 | CO[C@@H]1CN(C)C(=O)c2cc(NC(=O)Nc3cc(F)ccc3F)ccc2OC[C@@H](C)N(C(=O)c2ccccn2)C[C@@H]1C | -4 | 3
18 | Cn1c(=O)n2n(c1=O)[C@H](C1CC1)C=C1CN3[C@@H]([C@H](Cc4ccccc4)OC(=O)[C@@H]3Cc3ccccc3)[C@@H]12 | -4 | -1
19 | O=C(N[C@@H]1CC[C@H](CCNC(=O)C2CCCCC2)O[C@H]1CO)c1ccncc1 | 15 | 6
20 | CCCC(=O)N1CCC2(CC1)CN(C(=O)c1ccc(F)cc1)[C@H](CO)c1[nH]c3cc(OC)ccc3c12 | -2 | -2
21 | CCC(=O)N(C)C[C@H]1Oc2ncc(-c3ccc(C(=O)N(C)C)cc3)cc2C(=O)N([C@@H](C)CO)C[C@@H]1C | 11 | 9
22 | CO[C@@H]1CN(C)C(=O)c2ccc(NC(=O)C3CC3)cc2OC[C@@H](C)N(CC2CCOCC2)C[C@H]1C | -7 | -15
23 | Cc1noc(C)c1NC(=O)Nc1ccc2c(c1)C(=O)N([C@@H](C)CO)C[C@@H](C)[C@@H](CN(C)C(=O)NC1CCCCC1)OCCCC[C@H](C)O2 | -2 | -8
24 | COc1ccc(NC(=O)N(C)C[C@@H]2OCCCC[C@@H](C)Oc3ccc(NS(=O)(=O)c4ccc(Cl)cc4)cc3C(=O)N([C@@H](C)CO)C[C@@H]2C)cc1 | -8 | -8
25 | C[C@H]1CCCCO[C@@H](CN(C)Cc2ccccc2)[C@@H](C)CN([C@@H](C)CO)C(=O)c2cc(NC(=O)Nc3ccc(F)cc3)ccc2O1 | ? | nt

The closing 6 entries of the section before come first, to join the parts.
# | Compound | Vaccinia stage | Vaccinia stage Venus
20 | CCCC(=O)N1CCC2(CC1)CN(C(=O)c1ccc(F)cc1)[C@H](CO)c1[nH]c3cc(OC)ccc3c12 | -2 | -2
21 | CCC(=O)N(C)C[C@H]1Oc2ncc(-c3ccc(C(=O)N(C)C)cc3)cc2C(=O)N([C@@H](C)CO)C[C@@H]1C | 11 | 9
22 | CO[C@@H]1CN(C)C(=O)c2ccc(NC(=O)C3CC3)cc2OC[C@@H](C)N(CC2CCOCC2)C[C@H]1C | -7 | -15
23 | Cc1noc(C)c1NC(=O)Nc1ccc2c(c1)C(=O)N([C@@H](C)CO)C[C@@H](C)[C@@H](CN(C)C(=O)NC1CCCCC1)OCCCC[C@H](C)O2 | -2 | -8
24 | COc1ccc(NC(=O)N(C)C[C@@H]2OCCCC[C@@H](C)Oc3ccc(NS(=O)(=O)c4ccc(Cl)cc4)cc3C(=O)N([C@@H](C)CO)C[C@@H]2C)cc1 | -8 | -8
25 | C[C@H]1CCCCO[C@@H](CN(C)Cc2ccccc2)[C@@H](C)CN([C@@H](C)CO)C(=O)c2cc(NC(=O)Nc3ccc(F)cc3)ccc2O1 | ? | nt
26 | O=C(Nc1ccc(C(F)(F)F)cc1)Nc1ccc2c(c1)[C@H]1C[C@@H](CC(=O)N3CCc4ccccc4C3)O[C@@H](CO)[C@H]1O2 | ? | nt
27 | C[C@@H]1CN([C@@H](C)CO)C(=O)c2c(c3ccccc3n2C)-c2ccccc2CO[C@@H]1CN(C)C(=O)Nc1ccc(-c2ccccc2)cc1 | -15 | -12
28 | C[C@@H]1CN([C@@H](C)CO)C(=O)c2cc(NS(=O)(=O)c3cn(C)cn3)ccc2O[C@@H](C)CCCCO[C@H]1CN(C)C | 18 | 3
29 | C[C@H](CO)N1C[C@H](C)[C@@H](CN(C)C)Oc2c(NC(=O)Nc3ccc(F)cc3)cccc2C1=O | 6 | -1
30 | C[C@H]1CN([C@@H](C)CO)S(=O)(=O)c2ccc(-c3ccccc3F)cc2O[C@@H]1CN(C)S(C)(=O)=O | -31 | -20
31 | C[C@H]1CN([C@@H](C)CO)C(=O)Cc2cc(NC(=O)c3ccncc3)ccc2O[C@@H]1CN(C)Cc1ccc(C(F)(F)F)cc1 | 9 | 11
32 | COc1cccc(S(=O)(=O)N(C)C[C@H]2Oc3cc(Br)ccc3S(=O)(=O)N([C@@H](C)CO)C[C@H]2C)c1 | ? | nt
33 | O=C(C[C@H]1CC[C@@H]2[C@H](COC[C@H](O)CN2S(=O)(=O)c2ccccc2)O1)NCC1CCCCC1 | -5 | -1
34 | O=C(C[C@H]1C[C@H]2c3cc(NC(=O)NC4CCCC4)ccc3O[C@H]2[C@H](CO)O1)NCc1ccc(Oc2ccccc2)cc1 | 0 | 11
35 | COc1ccc(CNC(=O)C[C@@H]2CC[C@H](NS(=O)(=O)c3cccc(OC)c3)[C@@H](CO)O2)cc1 | -6 | -1
36 | C[C@@H]1CN([C@@H](C)CO)C(=O)c2cccc(NS(=O)(=O)c3cn(C)cn3)c2O[C@@H]1CN(C)C(=O)Nc1ccc(C(F)(F)F)cc1 | 7 | 3
37 | O=C(O)C[C@@H]1C[C@H]2c3cc(NC(=O)CC4CC4)ccc3O[C@H]2[C@H](CO)O1 | 11 | 11
38 | COc1ccc(S(=O)(=O)N(C)C[C@@H]2OCCCC[C@@H](C)Oc3ccc(N(C)C)cc3C(=O)N([C@@H](C)CO)C[C@@H]2C)cc1 | 2 | 5
39 | O=C(Nc1cc(F)ccc1F)N1C[C@@H]2[C@H](c3ccccc31)[C@H](CO)N2Cc1ccncc1 | 12 | 14
40 | C[C@@H]1CN([C@@H](C)CO)C(=O)c2cccc(NS(=O)(=O)c3ccccc3)c2O[C@@H]1CN(C)Cc1ccc(Oc2ccccc2)cc1 | -12 | -11
41 | C[C@@H]1CN([C@H](C)CO)C(=O)c2cc(C#CCN(C)C)cnc2O[C@@H]1CN(C)Cc1ccc(F)cc1 | 20 | 7
42 | O=C(Nc1cc(F)ccc1F)N1CCCCN2[C@H](CO)[C@H](c3ccc(C4=CCCCC4)cc3)[C@@H]2C1 | -22 | -17
43 | CO[C@@H]1CN(C)C(=O)c2cc(NC(=O)C3CC3)ccc2OC[C@@H](C)N(CC2CC2)C[C@@H]1C | 6 | 2
44 | Cc1ccc(S(=O)(=O)N(C)C[C@@H]2Oc3ccc(NC(=O)Cc4ccccc4)cc3C(=O)N([C@H](C)CO)C[C@H]2C)cc1 | -6 | -5
45 | CN1C(=O)c2cc(NC(=O)c3cscn3)ccc2OC[C@@H]2O[C@@H](CC(=O)N3CCCCC3)CC[C@@H]21 | 2 | 3
46 | C[C@@H]1CN([C@@H](C)CO)C(=O)Cc2cc(NC(=O)Cn3cnnn3)ccc2O[C@@H]1CN(C)Cc1ccc(C(=O)O)cc1 | 2 | 6
47 | C[C@@H]1CN([C@@H](C)CO)C(=O)c2cc(-c3cccc(F)c3)cnc2O[C@H]1CN(C)C(=O)C1CCC1 | 4 | 5
48 | C[C@H](CO)N1C[C@H](C)[C@@H](CN(C)C(=O)Nc2ccc(F)cc2)Oc2ccc(NS(=O)(=O)c3cccs3)cc2CC1=O | 18 | 6
49 | O=C(C[C@H]1CC[C@@H](NS(=O)(=O)c2ccc(F)cc2)[C@@H](CO)O1)NC1CCC1 | 3 | -1
50 | CCCN(C)C[C@@H]1Oc2ncc(-c3ccccc3F)cc2C(=O)N([C@H](C)CO)C[C@@H]1C | -15 | -11
51 | C[C@@H]1CCCCO[C@@H](CN(C)Cc2ccc3c(c2)OCO3)[C@@H](C)CN([C@H](C)CO)C(=O)c2cc(NC(=O)CCCN(C)C)ccc2O1 | 28 | 15
52 | CNC(=O)C[C@@H]1CC[C@H]2[C@@H](COc3ccc(NC(=O)c4cccc(OC)c4)cc3C(=O)N2C)O1 | -1 | -3
53 | C[C@H](CO)N1C[C@H](C)[C@@H](CN(C)S(=O)(=O)c2ccc(Cl)cc2)Oc2ccc(NC(=O)c3ccncc3)cc2CC1=O | -4 | -3
54 | C[C@@H]1CN([C@H](C)CO)C(=O)c2cc(NC(=O)c3ccccc3)ccc2O[C@@H](C)CCCCO[C@@H]1CN(C)S(C)(=O)=O | 3 | 1
55 | COc1ccc(S(=O)(=O)Nc2ccc3c(c2)C(=O)N([C@H](C)CO)C[C@H](C)[C@@H](CN(C)C(=O)c2ccccc2)OCCCC[C@@H](C)O3)cc1 | 21 | 12
56 | C[C@@H]1CN([C@H](C)CO)C(=O)c2cc(C#CC3(O)CCCC3)cnc2O[C@H]1CN(C)S(C)(=O)=O | 19 | 9
57 | C[C@@H]1CN([C@H](C)CO)C(=O)c2cc(NC(=O)CCN3CCOCC3)ccc2O[C@@H]1CN(C)Cc1ccc2c(c1)OCO2 | 13 | 13
58 | O=C(Nc1ccc2c(c1)[C@@H]1C[C@H](CC(=O)N3CCCCC3)O[C@H](CO)[C@@H]1O2)NC1CCCC1 | 25 | 24
59 | O=C(C[C@@H]1CC[C@H]2[C@@H](COC[C@@H](O)CN2S(=O)(=O)c2ccccc2)O1)NCCN1CCCC1 | -2 | 2
60 | COC(=O)C[C@H]1CC[C@@H]2[C@@H](COc3ccc(NC(=O)Nc4ccccc4C)cc3C(=O)N2C)O1 | -4 | 2
61 | C[C@H]1CN([C@@H](C)CO)C(=O)Cc2cc(NS(=O)(=O)c3cccs3)ccc2O[C@H]1CN(C)C(=O)NC1CCCCC1 | 7 | 3
62 | COc1cccc(-c2ccc([C@@H]3[C@H](CO)N(C(=O)C4CC4)C34CN(C(C)=O)C4)cc2)c1 | 6 | 10
63 | CC(C)NC(=O)Nc1ccc2c(c1)CC(=O)N([C@@H](C)CO)C[C@H](C)[C@@H](CN(C)C(=O)Nc1ccc(F)cc1)O2 | 0 | 0
64 | CC(C)NC(=O)Nc1ccc2c(c1)C(=O)N([C@@H](C)CO)C[C@H](C)[C@@H](CN(C)S(=O)(=O)c1cn(C)cn1)O2 | 16 | 9
65 | CCCC#Cc1ccc2c(c1)O[C@@H](CN(C)C(=O)NCCC)[C@@H](C)CN([C@@H](C)CO)S2(=O)=O | -4 | -2
66 | C[C@H](CO)N1C[C@H](C)[C@H](CN(C)CC2CCCCC2)Oc2ccc(NC(=O)NC3CCCCC3)cc2C1=O | -25 | -19
67 | O=S(=O)(NC[C@@H]1N[C@@H](CO)[C@@H]1c1ccccc1)c1ccccc1 | 1 | 3
68 | C[C@@H]1CCCCO[C@@H](CN(C)C(=O)Nc2ccc(C(F)(F)F)cc2)[C@H](C)CN([C@H](C)CO)C(=O)c2cc(NC(=O)C3CCCCC3)ccc2O1 | -16 | -4
69 | C[C@@H]1CCCCO[C@@H](CN(C)Cc2ccc(C(=O)O)cc2)[C@H](C)CN([C@H](C)CO)C(=O)c2cc(NC(=O)C3CCCCC3)ccc2O1 | 14 | 0
70 | CCCC(=O)Nc1ccc2c(c1)OC[C@@H](C)N(CCC(F)(F)F)C[C@@H](C)[C@H](OC)CN(C)C2=O | 21 | 3
71 | C[C@@H]1CN([C@@H](C)CO)C(=O)c2cc(NC(=O)CCC(F)(F)F)ccc2O[C@H]1CN(C)S(=O)(=O)c1cn(C)cn1 | 3 | 4
72 | CCS(=O)(=O)N1CC(=O)N2[C@@H](CO)[C@H](c3ccc(C#CCc4ccccc4)cc3)[C@@H]2C1 | 2 | -2
73 | COCC(=O)N1C[C@H](C)[C@@H](OC)CN(C)C(=O)c2ccc(NC(=O)C3CCC3)cc2OC[C@@H]1C | 8 | 4
74 | COc1ccc(S(=O)(=O)Nc2ccc3c(c2)C(=O)N([C@H](C)CO)C[C@H](C)[C@H](CN(C)C)OCCCC[C@H](C)O3)cc1 | 11 | 2
